KCNQ2 enhance – KCNQ2 (rat) channel potentiation; O88943; CHO-K1 KCNQ2, FluxOR thallium flux fluorescence; stronger effect = higher value; B-score at 10 µM; 310,000 tested, 0.54% active;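 active = fluorescence ratio B-score at least 3 SD of library B-scores, with initial fluorescence B-score within 3 SD, cut at about 5.3 in these data; same plate scores as AID 2156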;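 also: B-score of peak minus minimum over baseline fluorescence ratio after K+ and Tl+ stimulus; positive B-score means potentiation of KCNQ2 with more thallium influx and brighter signal; only the inactives scoring about 0 or higher are listed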
Target sequence (O88943 whole entry, looked up): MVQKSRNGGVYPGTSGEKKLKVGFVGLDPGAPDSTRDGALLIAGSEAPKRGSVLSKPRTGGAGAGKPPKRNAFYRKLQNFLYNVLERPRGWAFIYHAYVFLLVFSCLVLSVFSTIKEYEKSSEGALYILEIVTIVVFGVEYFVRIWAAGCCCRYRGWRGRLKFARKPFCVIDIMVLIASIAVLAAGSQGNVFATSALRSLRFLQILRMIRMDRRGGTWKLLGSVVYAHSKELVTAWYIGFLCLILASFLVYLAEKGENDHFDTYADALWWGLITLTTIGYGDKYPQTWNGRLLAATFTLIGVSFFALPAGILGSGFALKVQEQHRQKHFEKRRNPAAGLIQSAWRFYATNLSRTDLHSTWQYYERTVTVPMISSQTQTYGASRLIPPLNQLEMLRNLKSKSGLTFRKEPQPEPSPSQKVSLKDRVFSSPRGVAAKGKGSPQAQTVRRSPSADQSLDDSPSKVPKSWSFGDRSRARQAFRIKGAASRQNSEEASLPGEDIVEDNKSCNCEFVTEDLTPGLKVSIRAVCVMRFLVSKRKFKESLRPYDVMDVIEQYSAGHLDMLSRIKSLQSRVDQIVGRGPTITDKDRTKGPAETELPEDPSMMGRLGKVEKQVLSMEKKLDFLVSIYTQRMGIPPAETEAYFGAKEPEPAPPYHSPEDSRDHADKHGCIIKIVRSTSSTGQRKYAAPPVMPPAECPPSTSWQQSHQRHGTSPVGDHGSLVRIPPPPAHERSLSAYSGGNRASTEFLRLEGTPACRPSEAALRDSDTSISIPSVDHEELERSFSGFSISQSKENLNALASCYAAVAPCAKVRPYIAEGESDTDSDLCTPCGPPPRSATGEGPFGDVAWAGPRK
KCNQ2 enhance baseline – second read-out of KCNQ2 enhance, no call of its own (marks repeat the call); B-score; compound at 10 µM; measured here: initial fluorescence intensity artifact check;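 brightness before thallium and not channel activity; 0 = typical well and far values either way flag optical interference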
* hit, by the source's call; . = not tested or not shown. Not all compounds are listed. The share of hits here may be higher or lower than overall.

SMILES	KCNQ2 enhance	KCNQ2 enhance baseline
Cc1ccc(N(CC(=O)O)C2SC(=O)NC2=O)cc1 (configuration not stated)	0.94	0.28
O=S(=O)(c1ccccc1C(F)(F)F)N1CCN(CC(O)COc2ccccc2F)CC1 (configuration not stated)	0.32	-2.3
CN(C)CCOC(=O)NCC12CC3CC(CC(C3)C1)C2	0.88	-1.3
N#CCCn1cc(C=C(C#N)C#N)c(-c2ccc(-c3ccccc3)cc2)n1	0.62	1.1
COCc1[nH][nH]c(=O)c1C=Nc1ccc(F)cc1F	2	-2.2
C[N+]1(CCOC(=O)C2(c3ccccc3)CCCC2)CCCCC1	0.93	0.15
O=C(/C=N/O)NCCCN1CCCCCC1	0.01	0.99
COc1ccc(Cl)c2sc(N3CCN(C(=O)C4=COCCO4)CC3)nc12	0.01	0.19
Cn1c(CO)cnc1SCc1ccc([N+](=O)[O-])cc1	0.38	-1
Cc1nc2n[nH]c(N)c2c2c1COC(C)(C)C2	0.33	0.14
Cc1ccccc1N(C(=O)c1ccccn1)C(C(=O)NCc1ccccc1)c1ccncc1 (configuration not stated)	1.3	-1.1
O=C(NCC(=O)N1CCN(c2ccccc2O)CC1)c1ccco1	0.08	0.01
Cc1nc2c(C)c(C)c(C)c(C)c2nc1C	0.72	0
O=C(O)c1c(Cl)c(Cl)c(Cl)c(Cl)c1C(=O)N1CCCCCC1	0.44	1.7
O=C1Cc2ccccc2N1c1ccccc1	0.38	1
O=C(COC(=O)c1cccc(Cl)c1Cl)NCCN1C(=O)CSC1=O	1.9	0.68
Cc1cc(N2CCCC2)nc(-c2ccccc2O)n1	0.46	0.97
CCCn1nc(C(=O)Nc2cc(C(=O)OC)ccc2C)c2ccccc2c1=O	1.3	1.1
O=C(c1ccc(Cl)s1)N1CCN(c2nc3ccccc3s2)CC1	2	-0.84
Cc1sc(NC(=O)Cc2ccc3c(c2)OCO3)nc1-c1ccc2c(c1)CCN2C(=O)c1ccccc1F	0.86	0
CCCCCCCn1c2c(c(=N)c3c1CCC3)CCCC2	1.9	1.1
CC1(c2nnc(-c3ccccc3)o2)CC(c2c(Cl)cccc2Cl)=NO1 (configuration not stated)	0.23	0.03
Cc1cccc(C(=O)NNC(=O)c2ccc(Br)cc2)c1	1.4	1.5
CN(C)c1ccc(C(CNC(=O)c2ccc(-c3ccccc3)cc2)N2CCOCC2)cc1 (configuration not stated)	0.11	-1.1
O=C(Cn1cncn1)NCCCc1ccccc1	0.74	-1.4
COc1cc(/C=N/NC(=O)COc2cccc(F)c2)ccc1OS(=O)(=O)c1ccc(C)cc1	1.8	1.4
Cc1cc(C)n2nc(S(=O)(=O)N(C)c3ccccc3)nc2n1	0.21	0.86
CCOC(=O)C1CCN(Cc2ccc(F)c(Br)c2)CC1	0.02	0.38
O=C(C1=C[C@H](C2CCCCC2)C[C@H](OCCCCO)O1)N1CCOCC1	0.45	1.1
CC(=O)Nc1nc(SCC(=O)NCC2CCCO2)[nH]c(=O)c1NC(=O)c1cccs1 (configuration not stated)	0.04	-1.3
CN(C)CCCNCCCNC(=O)c1ccco1	0.5	0.4
CCOC(=O)c1cc(S(=O)(=O)Nc2cccc(OC)c2)cn1C	0.91	-1.2
CCN(CC(=O)Nc1c(F)cccc1F)C(=O)C1CCN(S(=O)(=O)c2ccc(C)c(C)c2)CC1	0.11	1.5
O=C(c1ccc(F)c(F)c1)N1CCC2(CC1)NCCc1[nH]cnc12	0.68	-0.66
Cc1cc(/C=C(\C#N)C(=O)OCC#N)c(C)n1CC(C)C	2.6	-1.3
COc1cccc(N2CCN(C(=O)C3CCN(S(=O)(=O)c4cccs4)CC3)CC2)c1	1.8	0.79
CN(C)c1nc(N)nc(CSc2nc3c(c(=O)n(C)c(=O)n3C)n2Cc2ccccc2F)n1	1.1	0.05
Cc1c(N=NC2=C(O)CC(C)(C)CC2=O)cc2c(c1[N+](=O)[O-])C(C)(C)CC2(C)C	6.7*	-1.4*
Cc1c(NC(=S)N/N=C/c2ccc(N(C)C)cc2)c(=O)n(-c2ccccc2)n1C	0.41	1
Cc1ccc2nc(NC(=O)C3CC3C)sc2c1 (configuration not stated)	1.2	1.9
O=C(CN1C(=O)c2ccccc2C1=O)N1CCN(c2ccccn2)CC1	0.14	-3
CNS(=O)(=O)c1cc(OCC(N)=O)c(C)cc1Cl	1.2	-0.52
CCCCOc1ccc(C)cc1CN(CCO)CCO	0.53	0.34
CC(C)Cn1c(=S)[nH]c2ccccc2c1=O	0.79	-0.69
C=CCn1c(SCC(=O)Nc2ccccc2CC)nnc1-c1ccncc1	0.26	-1.3

The list goes on (6 carried over from the part before).
SMILES	KCNQ2 enhance	KCNQ2 enhance baseline
Cc1ccc2nc(NC(=O)C3CC3C)sc2c1 (configuration not stated)	1.2	1.9
O=C(CN1C(=O)c2ccccc2C1=O)N1CCN(c2ccccn2)CC1	0.14	-3
CNS(=O)(=O)c1cc(OCC(N)=O)c(C)cc1Cl	1.2	-0.52
CCCCOc1ccc(C)cc1CN(CCO)CCO	0.53	0.34
CC(C)Cn1c(=S)[nH]c2ccccc2c1=O	0.79	-0.69
C=CCn1c(SCC(=O)Nc2ccccc2CC)nnc1-c1ccncc1	0.26	-1.3
O=C(Nc1nnc(SCc2cccc(F)c2)s1)c1ccco1	0.69	-1.9
Cc1ccc2[nH]c(=O)c(CN(CCCN(C)C)C(=O)Nc3ccc(F)cc3)cc2c1	1.4	-0.96
Cc1ccc(-c2cc(-c3ccc(C)cc3O)[nH]n2)cc1	0.24	-1.3
O=C(COC(=O)CCC(=O)c1ccc2c(c1)OCCO2)NCc1ccc2c(c1)OCO2	0.62	0.02
Cc1cc(NC(=O)CC2CCCC2)ccc1Br	2.1	-0.48
COc1cc2c(cc1OC)C(C)N(C(=O)C(NC(=O)c1ccccc1)C(C)C)CC2 (configuration not stated)	0.64	1.4
Nc1nnnn1NCc1cccc(OCc2ccccc2)c1	0.83	-1.7
CCN(CC)CCOCCOc1ccccc1F	0.23	-0.98
O=C(O)c1cc2ccccc2n1-c1ccccc1	0.56	-0.15
COC(=O)c1ccc(COc2cccc3c2CCN(Cc2ccccc2)C3=O)o1	0.05	2.4
CC1=C/C(=N\OC(=O)/C=C/c2ccccc2)C(C)=CC1=O	0.9	-0.28
CC(=O)Nc1cccc(Oc2ccc3c(c2)C(=O)NC3=O)c1	0.42	-0.59
CC1=C(C(=O)N2CCCC(N3CCN(c4cccc(C(F)(F)F)c4)CC3)C2)OCCO1 (configuration not stated)	1.4	0.16
CC(C)(C)c1cc(NC(=O)COC(=O)c2ccc3c(=O)n4c(nc3c2)CCC4)n(-c2ccccc2)n1	0.11	1.1
CC(=O)N1CCN(C(=S)Nc2ccc(Oc3ccccc3)cc2)CC1	0.84	1.4
CC1=NN(C(=O)c2ccccc2-n2cccc2)C(O)(C(F)(F)F)C1 (configuration not stated)	2.1	1.1
CN(c1ccccc1)c1nccc(=O)[nH]1	0.22	0
CCOC(=O)N1CCC(NC(=O)C2CCCN(S(=O)(=O)c3ccc4c(c3)oc(=O)n4C)C2)CC1 (configuration not stated)	1.4	0.74
O=C(NCc1ccco1)c1ccc(N2CCOCC2)c([N+](=O)[O-])c1	0.1	0.9
CCOCN(C(=O)Cn1c(COC)nc2ccccc21)c1c(C)cccc1CC	1.5	-1.6
C#CCOCCOCCOCCNc1nc(N2CCN(C(=O)[C@H](CCC(=O)O)n3cc(C(N)CO)nn3)CC2)nc(N2CCN(C(=O)[C@H](CCC(=O)O)n3cc(C(N)[C@H](C)CC)nn3)CC2)n1 (some centres not stated)	0.53	-0.15
C/C(=N\NC(=O)c1cc(-c2cccnc2)nc2ccccc12)c1ccccc1O	0.73	-1.8
CC1CCCCN1C(=O)C1CCN(S(=O)(=O)c2ccc(-n3cnnn3)cc2)CC1 (configuration not stated)	0.96	0.49
O=c1ccc(-c2ccc(S(=O)(=O)Nc3ccc(F)cc3)o2)n[nH]1	0.94	0.15
CCCC(=O)NC(C)c1nc(-c2ccc(C)cc2)no1 (configuration not stated)	1.1	-0.65
COc1ccc(-c2csc(C)n2)cc1Br	0.46	0.13
COc1cccc(NC(=O)C2CCCN(S(=O)(=O)c3cccc4cccnc34)C2)c1 (configuration not stated)	1.7	-0.47
Cc1cc(C)cc(NC(=O)c2cc3c(=O)n4ccccc4nc3s2)c1	1.2	0.87
CCOC(=O)CC1C(=O)NCCN1C(=O)c1cccc(OC)c1 (configuration not stated)	0.37	0.38
c1ccc2c(c1)ncn2CCN1CCCCC1	0.91	-0.23

Looked up by structure from above, 6 records:
SMILES	KCNQ2 enhance	KCNQ2 enhance baseline
O=C(NCC(=O)N1CCN(c2ccccc2O)CC1)c1ccco1	0.08	0.01
COC(=O)c1ccc(COc2cccc3c2CCN(Cc2ccccc2)C3=O)o1	0.05	2.4
COc1ccc(Cl)c2sc(N3CCN(C(=O)C4=COCCO4)CC3)nc12	0.01	0.19
CC1=NN(C(=O)c2ccccc2-n2cccc2)C(O)(C(F)(F)F)C1 (configuration not stated)	2.1	1.1
O=c1ccc(-c2ccc(S(=O)(=O)Nc3ccc(F)cc3)o2)n[nH]1	0.94	0.15
COc1cccc(N2CCN(C(=O)C3CCN(S(=O)(=O)c4cccs4)CC3)CC2)c1	1.8	0.79

Other entries.
SMILES	KCNQ2 enhance	KCNQ2 enhance baseline
Cc1ccc(NC(=O)NCCc2ccc(S(N)(=O)=O)cc2)cc1	0.09	-0.25
CC(=O)c1c(C)[nH]c(C(=O)Nc2cccc(S(=O)(=O)N(C)C)c2)c1C	0.31	-1
O=C(O)CCC(=O)CCC(=O)c1ccc(Cl)cc1	0.32	0.01
O=C(Nc1ccccc1-c1nnn(CC(=O)N2CCOCC2)n1)c1ccccc1F	1.7	0
COC(=O)[C@H](Cc1ccccc1)NC(=O)Nc1ccc(OC)cc1	1.2	-0.3
CCOC(=O)c1c(C)n(C)c2ccc(O)c(CN(CC)CC)c12	0.06	-0.5
Cc1cc2oc(C(=O)N(Cc3cccs3)C3CCS(=O)(=O)C3)cc(=O)c2cc1Cl (configuration not stated)	1.4	-1.1
O=C(/C=C/c1ccccc1[N+](=O)[O-])N1CCCCC1	0.72	-0.28
Cc1ccccc1NC(=O)C(C)c1ccc(-c2ccccc2)c(F)c1 (configuration not stated)	1.8	-1.4
S=c1nc(-c2ccccc2)[nH]n1-c1ccccc1	18*	-0.24*
NC(=S)N=Nc1c(O)n(C2OC(=O)c3ccccc32)c2ccccc12 (configuration not stated)	1.4	-0.45
CC1=C(C(=O)Nc2ccccn2)C(c2ccc(Cl)cc2)NC(=S)N1 (configuration not stated)	0.76	-1.3
CC(O)Cn1c(=O)c2c(nc(Br)n2Cc2ccccc2)n(C)c1=O (configuration not stated)	1.1	0.12
COc1ccc(N2CCN(S(=O)(=O)c3cccs3)CC2)cc1	1.1	-1.4
COc1cc(S(=O)(=O)NCCCn2ccnc2)ccc1F	1.3	1.6

Gathered by group: the entries above with a cyano group (2)
SMILES	KCNQ2 enhance	KCNQ2 enhance baseline
N#CCCn1cc(C=C(C#N)C#N)c(-c2ccc(-c3ccccc3)cc2)n1	0.62	1.1
Cc1cc(/C=C(\C#N)C(=O)OCC#N)c(C)n1CC(C)C	2.6	-1.3

Further entries
SMILES	KCNQ2 enhance	KCNQ2 enhance baseline
O=C(O)c1ccn2c(C(=O)c3ccc(Cl)cc3)c(-c3ccccc3)cc2c1	8.4*	-0.01*
CC(C)n1cc(C(=O)N2CCCC(N3CCN(c4ccc(F)cc4)CC3)C2)cn1 (configuration not stated)	1.6	-1.7
Fc1ccc(Cn2nnnc2CN2CCN(C3CCCC3)CC2)cc1	0.08	-1.3
CCCc1cc(C(=O)Nc2sc(C)c(CC)c2C#N)no1	1.7	-1.1
Cc1ccc(S(=O)(=O)Nn2c(C)nnc2-n2nc(C)cc2C)cc1	2	-1.2
COC(=O)/C=C1\S/C(=N/N=C/c2ccc(Cl)cc2)NC1=O	1.4	-0.72
CC(/C=N/NC(=O)Cn1nnc(N)n1)=C\c1ccc(C(C)C)cc1	0.55	-0.38
CCNCc1cc2cc(C)ccc2[nH]c1=O	1.2	0.04
CCOC(=O)c1sc(Nc2nc3c(OC)cccc3s2)nc1C	0.13	-0.4
Cc1ccc(C(=O)N2c3ccccc3N(Cc3ccccc3)C(=O)C2(C)C)cc1	-5.6	.
O=C(N[C@@H](Cc1ccccc1)C(=O)NC1CCCCC1)c1ccco1	0.07	-0.85
CC(C)(C)NS(=O)(=O)c1ccc(CCC(=O)N2CCCC2)cc1	0.31	-0.19
O=C1CC(c2ccc(F)c(Br)c2)C2=C(CCCC2=O)N1 (configuration not stated)	0.73	0.03
COc1cc2ncnc(NCc3ccccc3C)c2cc1OC	2.7	0.97
COc1cc(NC(=O)COC(=O)c2ccccc2SCC(=O)N2CCCC2)cc(OC)c1	1.6	0.53
Cc1[nH]n(-c2ccccc2)c(=O)c1C(=O)c1ccc(Cl)cc1	0.38	0.55
Cc1c(Cl)cccc1NC(=O)N1CCCC1	2.6	-0.34
CCN(CC)CCN(Cc1cc2cc3c(cc2[nH]c1=O)OCO3)C(=S)NCC1CCCO1 (configuration not stated)	0.42	1.6
Clc1cccc(-c2ccc(/C=N/n3cnnc3)o2)c1Cl	0.28	-1.3
Cc1ccnc(NC(=O)CCC(=O)N(CC(=O)NCc2ccccc2)Cc2ccc(F)cc2)c1	0.54	-3.1
Cc1cc(NC(=O)CSc2nnc(-c3ccc(Br)o3)n2Cc2ccccc2)no1	1.2	-1
COc1ccc(S(=O)(=O)N2CCC(C(=O)Nc3nnc(C)s3)CC2)cc1OC	0.53	-0.87
CCCn1c(SCC(=O)Nc2nc3c(s2)CCCC3)nc2c1c(=O)n(C)c(=O)n2C	0.53	0.79
O=c1c2sc(-c3ccccc3)cc2nc2n1CCC2	2.3	-1.5
CCCSC1=C(C#N)C2(CCCCC2)C(C#N)=C(N)N1	2.9	-1.5
O=C(CNC(=O)c1cc2ccccc2o1)NCc1cccs1	1.1	1.1
Cc1cc(/C=c2/sc3nc4ccccc4n3c2=O)c(C)n1-c1ccccn1	0.56	2.1

From PubChem
